Ecoli growth: E. coli growth inhibition, primary screen, OD600; OD600 absorbance (concentration not given with the values); Escherichia coli growth, 23 h; stronger effect = lower value; 330,000 compounds, 0.21% hits; AID 1053175, 2014;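 active = OD600 absorbance below the run mean of sample wells minus 3.6 SD, in any replicate, cut at about 0.56 in these data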;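 note: stock transfer was 300 nL into about 60 µL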
FGF22 binding: binders of human FGF22 protein, primary screen, FGF22 synaptogenesis inhibitor project, biophysical, thermal shift, single point; Fibroblast growth factor 22 (Homo sapiens), Q9HCT0; recombinant FGF22 thermal shift, SYPRO orange fluorescence; percent of sucrose octasulfate shift, DMSO zero; calls only at 9.99 µM; 340,000 compounds, 1.5% hits; AID 651658, 2012;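 active = melting point raised past a set limit in the mean and every replicate; inconclusive = no clear call; three in four hits are not shown here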
Target sequence (Q9HCT0 whole entry, looked up): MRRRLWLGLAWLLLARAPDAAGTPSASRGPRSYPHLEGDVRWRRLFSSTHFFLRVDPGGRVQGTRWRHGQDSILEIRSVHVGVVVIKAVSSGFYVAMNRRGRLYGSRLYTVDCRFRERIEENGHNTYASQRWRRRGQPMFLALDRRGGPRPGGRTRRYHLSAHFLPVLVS
UCH37 DUB inh: inhibitors of human UCH37 deubiquitinase, primary screen, biochemical, Ub-AMC cleavage, fluorescence; purified proteasome/UCH37; inhibition, % (concentration not given with the values); Ubiquitin carboxyl-terminal hydrolase isozyme L5 (Homo sapiens), Q9Y5K5; 330,000 compounds, 0.33% hits; AID 588478, 2011;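 active = mean of two replicates above 20%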;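 note: 0% = compound-free wells with enzyme and 100% = wells lacking proteasome; stock transfer was 100 nL into about 20 µL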
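Reagent: Ub-AMC substrate; assay system: Proteasome-associated human UCH37 deubiquitinase; controls: no-proteasome and no-compound wells; read-out: % inhibition of Ub-AMC cleavage fluorescence; timing: 30 min preincubation with enzyme, 25 min cleavage at room temperature; signal: AMC fluorescence from Ub-AMC cleavage, excitation 355 nm, emission 460 nm; buffer or medium: Tris-HCl pH 7.4 plus ovalbumin, ATP-MgCl2, DTT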
ALR inh: inhibitors of human ALR sulfhydryl oxidase, primary screen, biochemical, H2O2 detection, HRP-luminol luminescence, single point. 290,000 compounds, 3.8% hits. inhibition, % (test concentration not listed). FAD-linked sulfhydryl oxidase ALR (Homo sapiens), P55789. purified ALR, DTT oxidation;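 active = mean and each replicate at 75% or more; inconclusive = only one of the two met; inactive = neither met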;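 note: stock transfer was 7.5 nL into about 7.5 µL; 0% = neutral wells and 100% = wells with inactivated enzyme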
HNF4A DNA FP: change in binding of human HNF4A to DNA, primary screen, biochemical, fluorescence polarization, FITC-DNA; Hepatocyte nuclear factor 4-alpha (Homo sapiens), P41235; activity change, % at 10 µM; 1 h; 360,000 compounds, 0.3% hits; in the data active = activity change above about 30%, passing the limit was not always enough;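 note: controls were the assay level and a saturating level of protein; the project sought stronger binding though the title names inhibitors; some compounds called inactive have numbers as strong as hits; positive values seem to mean higher polarization but the record does not say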
Target sequence (P41235 whole entry, looked up): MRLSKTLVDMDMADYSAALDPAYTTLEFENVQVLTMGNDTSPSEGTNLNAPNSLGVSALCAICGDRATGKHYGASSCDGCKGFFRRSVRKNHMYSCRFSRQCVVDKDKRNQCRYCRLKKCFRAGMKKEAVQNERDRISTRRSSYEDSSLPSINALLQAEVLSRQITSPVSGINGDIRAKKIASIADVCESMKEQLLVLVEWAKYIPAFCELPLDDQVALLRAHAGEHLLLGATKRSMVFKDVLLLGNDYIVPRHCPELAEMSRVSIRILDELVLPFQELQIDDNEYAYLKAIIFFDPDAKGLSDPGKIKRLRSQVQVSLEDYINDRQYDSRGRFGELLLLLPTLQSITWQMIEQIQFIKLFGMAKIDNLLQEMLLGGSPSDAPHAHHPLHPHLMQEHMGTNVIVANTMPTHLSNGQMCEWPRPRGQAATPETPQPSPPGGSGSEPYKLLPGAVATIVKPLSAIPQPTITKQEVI
LANA-H2A inh: blockers of LANA interaction with H2A/H2B – biochemical, FP readout, HTS, primary screen | Protein LANA1 (Human herpesvirus 8 type P (isolate GK18)), Q9QR71 | cell-free LANA-H2A/H2B peptide, fluorescence polarization | inhibition, % (no concentration beside the values) | 320,000 compounds, 0.6% hits; in the data active = inhibition mostly above about 10%, no sharp cut-off; inactive = mostly below about 6.7%;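 note: stock transfer was 7.5 nL into about 10 µL; 0% = median of vehicle wells and 100% = median of positive control wells; one replicate is shown; the record names a cut of 25% in any replicate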
Beta2AR agonist: beta2AR agonists driving receptor internalization, primary screen, cell-based, FAP fluorogen, flow cytometry. Beta-2 adrenergic receptor (Homo sapiens), P07550. Am2.2-beta2AR cells; reference of the scale not given here. response, % (no concentration beside the values). 340,000 compounds, 0.43% hits. AID 504454, 2011;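 active = response above a set limit, near 3 SD of response in nonfluorescent compounds, cut at about 42% in these data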;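 note: stock transfer was 100 nL into about 11 µL; a reference agonist was the positive control; negative values mostly stem from fluorescent compounds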
Target sequence (P07550 whole entry, looked up): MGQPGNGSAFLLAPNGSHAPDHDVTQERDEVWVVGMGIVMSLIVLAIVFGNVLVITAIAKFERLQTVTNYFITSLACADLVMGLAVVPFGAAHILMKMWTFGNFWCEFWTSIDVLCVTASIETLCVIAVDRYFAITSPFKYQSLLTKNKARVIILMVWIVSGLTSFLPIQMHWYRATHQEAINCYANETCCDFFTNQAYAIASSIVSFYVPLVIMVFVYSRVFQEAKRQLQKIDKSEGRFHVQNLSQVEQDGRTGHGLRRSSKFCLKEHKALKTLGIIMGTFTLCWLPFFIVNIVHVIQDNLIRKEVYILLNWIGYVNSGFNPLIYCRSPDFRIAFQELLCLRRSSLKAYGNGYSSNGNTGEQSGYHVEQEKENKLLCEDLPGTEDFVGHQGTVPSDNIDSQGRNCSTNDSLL
* marks the source's active call; other numbers are inactive results; i = inactive; ? = inconclusive; . = not tested or not shown.

SMILES	Ecoli growth	FGF22 binding	UCH37 DUB inh	ALR inh	HNF4A DNA FP	LANA-H2A inh	Beta2AR agonist
S=C(NCCN1CCOCC1)N1CCN(c2cccc(Cl)c2)CC1	0.607	i	2.5	4.1	0.2	-0.3	4.4
COc1cc(/C=N/Nc2ccc(C)cc2)cc(Br)c1O	.	i	.	98.4*	1.4	2.2	2.8
O=C(CCCn1c(SCC(=O)c2ccc(Cl)cc2)nc2ccccc2c1=O)NCc1ccco1	0.691	.	-0.7	5.8	-1.2	-1.3	-7.1
O=C(O)c1ccc(-c2nc(-c3ccc(Cl)c(Cl)c3)cs2)cc1	0.727	.	-6.6	1.9	0.3	1.0	5.2
BrC(/C=N/N1CCN(Cc2ccccc2)CC1)=C/c1ccccc1	.	i	.	34.7	6.1	-1.5	3.5
COc1cc(/C=N/n2c(COc3ccccc3)n[nH]c2=S)cc(OC)c1OC(C)=O	.	i	.	18.1	-1.5	0.0	4.5
CCCOc1ccc(C(O)CCNC(CC(=O)O)c2ccccc2)cc1 (stereo unspecified)	0.727	i	3.3	-1.9	2.0	1.4	11.0
O=C(COc1ccccc1)c1cn(CC(=O)N2CCCC2)c2ccccc12	0.682	i	1.7	-1.5	-0.2	2.5	-3.6
Cc1nc2ccccc2c2oc(C(=O)NCCCN3CCCC3=O)cc12	0.699	.	-0.4	-12.2	-3.5	1.3	0.2
CC12CCC(C(=O)NCc3ccccc3Cl)(C(Br)C1=O)C2(C)C (stereo unspecified)	0.692	.	6.7	-10.4	2.6	1.1	5.0
Oc1cccc2ccc(/C=C/c3ccccc3Cl)nc12	0.696	i	-2.1	-5.8	-0.7	2.6	6.0
O=C(Cn1nnc(-c2cccc(C(F)(F)F)c2)n1)N1CCCCCC1	0.719	.	1.8	-2.5	2.9	-1.2	-8.3
CCOC(=O)C1CC2CC(C1)CN(C(=O)C1CCCCC1)C2 (stereo unspecified)	0.71	i	0.6	-8.2	-3.9	-1.1	-2.8
O=C(CCC(=O)N1CCN(S(=O)(=O)c2ccc(Cl)cc2)CC1)Nc1cccc(Br)c1	0.669	i	-0.2	-2.3	-0.6	0.9	-8.7
Nc1nc(SCc2cccnc2)c2ncn(C3OC(CO)C(O)C3O)c2n1 (stereo unspecified)	0.673	i	0.0	.	-1.1	.	-11.1
COc1ccc(C(=O)NC(=S)N2CCCc3ccccc32)cc1OC	0.708	i	0.8	10.7	-12.2	-5.3	12.0
COc1cc(OC)cc(C(=O)OCc2ccc([N+](=O)[O-])cc2)c1	0.667	i	2.0	-1.5	-0.5	-3.1	0.7
CC1CCN(CC(O)CN2c3ccccc3Sc3ccccc32)CC1 (stereo unspecified)	0.63	.	3.8	?	1.3	3.9	5.2
O=C(O)c1ccc(S(=O)(=O)c2ccccc2)cc1	0.715	.	1.4	-5.6	1.9	-1.9	6.5
C=CCNC(=O)c1ccc(Cl)cc1Cl	0.71	.	4.0	-3.0	-1.7	0.7	-5.8

Full records as entered above. Values in the order: Ecoli growth	FGF22 binding	UCH37 DUB inh	ALR inh	HNF4A DNA FP	LANA-H2A inh	Beta2AR agonist
COc1cc(/C=N/n2c(COc3ccccc3)n[nH]c2=S)cc(OC)c1OC(C)=O is listed with .	i	.	18.1	-1.5	0.0	4.5
BrC(/C=N/N1CCN(Cc2ccccc2)CC1)=C/c1ccccc1 is listed with .	i	.	34.7	6.1	-1.5	3.5

3 compounds already listed, arranged by SMILES length, rising.
SMILES	Ecoli growth	FGF22 binding	UCH37 DUB inh	ALR inh	HNF4A DNA FP	LANA-H2A inh	Beta2AR agonist
CCCOc1ccc(C(O)CCNC(CC(=O)O)c2ccccc2)cc1 (stereo unspecified)	0.727	i	3.3	-1.9	2.0	1.4	11.0
O=C(COc1ccccc1)c1cn(CC(=O)N2CCCC2)c2ccccc12	0.682	i	1.7	-1.5	-0.2	2.5	-3.6
COc1cc(/C=N/n2c(COc3ccccc3)n[nH]c2=S)cc(OC)c1OC(C)=O	.	i	.	18.1	-1.5	0.0	4.5

The listing continues.
SMILES	Ecoli growth	FGF22 binding	UCH37 DUB inh	ALR inh	HNF4A DNA FP	LANA-H2A inh	Beta2AR agonist
COc1ccc(-n2nc3c(c2NC(=O)c2c(-c4ccccc4Cl)noc2C)CS(=O)(=O)C3)cc1	0.67	i	0.0	0.9	2.6	-5.0	-4.5
CC(=O)c1ccc(NC(=O)CSc2ccc(-c3ccco3)nn2)cc1	0.738	i	-2.7	29.2	-6.2	3.1	-2.9
COc1cccc(CN(C)CC(=O)Nc2ccccc2C(=O)Nc2ccccc2)c1OC	0.716	.	2.6	2.9	-0.2	-0.3	4.4
CN(C(=O)COC(=O)/C=C/c1cccc([N+](=O)[O-])c1)C1CCS(=O)(=O)C1 (stereo unspecified)	0.675	i	2.9	-5.0	0.2	-1.0	1.5
CNC(=S)N/N=C(\C)c1ccc2c(c1)OCCO2	.	i	.	21.9	5.5	0.0	-2.6
O=C(CN1CCCC1)N1c2ccccc2Sc2ccc(C(F)(F)F)cc21	0.671	.	3.4	15.5	1.1	-4.5	0.6
Cc1nn(C)c(C)c1S(=O)(=O)N1CCCC(C(=O)N2CCN(c3ccccc3)CC2)C1 (stereo unspecified)	0.783	i	-0.5	.	-1.7	-5.2	6.5
Cc1ccc2cc(C3CC(c4ccco4)=NN3S(C)(=O)=O)c(Cl)nc2c1 (stereo unspecified)	0.683	i	0.1	0.7	1.6	-8.3	8.6
N#CC1=C(SCc2ccccc2Cl)NC(=O)C(C(N)=O)C1 (stereo unspecified)	0.71	i	-0.2	-4.3	-2.2	-8.3	5.0
Cc1ccc2oc(=O)c3cnn(CC(=O)NCCN4CCOCC4)c3c2c1	0.794	i	6.7	-6.9	1.6	2.5	-12.9
CCC(C)n1c(SCC(=O)Nc2cc(C(C)(C)C)nn2-c2ccccc2)nc2ccccc2c1=O (stereo unspecified)	0.756	i	6.5	-14.7	-0.7	3.8	-1.6
COC(=O)COc1ccc(/C=N/NS(=O)(=O)c2ccccc2)cc1	.	i	.	5.5	2.4	-1.8	9.0
CC1(C)CC(=O)C(C=NCCN2CCN(CCCCS(=O)(=O)O)CC2)=C(O)C1	0.685	.	1.0	-11.3	-2.1	8.3	0.0
O=C(NNC1=NCCCCC1)c1ccccc1	0.716	.	5.1	0.8	-1.4	0.5	1.9
COCCn1c(SCC(=O)NCc2ccco2)nnc1-c1c[nH]c2ccccc12	0.707	i	6.0	-23.5	1.5	-1.6	8.4
CC(=O)c1cccc(CN2CCCC(C(=O)Nc3cccc(-n4cccn4)c3)C2)c1 (stereo unspecified)	0.722	i	6.6	-0.7	-0.4	3.2	-10.7
COc1ccc(-c2ccc(S(=O)(=O)NCC3CCCO3)cc2)cc1 (stereo unspecified)	0.651	.	1.2	-1.3	1.1	-0.5	-1.7
O=C(NC1CC1)C(=O)c1c[nH]c2ccccc12	0.67	i	5.4	-1.0	7.9	0.7	2.2
Cc1ccc(/C(O)=C2\C(=O)C(=O)N(CC(C)O)C2c2cccc(F)c2)cc1 (stereo unspecified)	0.706	.	2.9	1.2	0.3	0.9	10.3
Cc1cc(C)cc(NC(=S)NCCN2CCOCC2)c1	0.729	.	-1.3	-6.7	2.6	0.3	1.9
Cc1cc2c(c(=O)o1)C(CC(C)C)C(C#N)=C(N)O2 (stereo unspecified)	0.712	.	2.3	0.6	0.3	-1.3	4.4
CCn1c(SCC(=O)N2CCCc3ccccc32)nc2c(c1=O)SC(C)C2 (stereo unspecified)	0.717	i	7.6	-9.2	-6.5	1.1	-7.5
O=C(NCCCN1CCOCC1)c1ccc(N2CCOCC2)c([N+](=O)[O-])c1	0.688	i	4.5	-3.8	-1.7	-3.1	4.4
Cc1cc(NCc2ccccc2)c2ccccc2n1	0.67	i	4.7	-1.1	4.7	-6.6	-0.6
CCc1c(C)nc(N2CCN(c3ccc(F)cc3)CC2)[nH]c1=O	0.724	i	-0.1	4.9	-1.7	2.7	5.2
CCN(C[C@H]1N[C@@](C)(C(=O)OC)[C@H]2C(=O)N(Cc3ccccc3)C(=O)[C@@H]12)S(=O)(=O)c1ccc(F)cc1	0.669	i	0.4	.	2.6	-0.3	-3.9
S=c1[nH]ncn1/N=C/c1ccccn1	.	.	.	92.2*	1.1	4.0	2.1
O=C(c1ccccc1SCc1ccc(F)cc1)N1CCOCC1	0.672	i	2.0	-10.8	2.2	-4.5	-1.7
CCOc1ccc(NCc2nnc(SCC(=O)Nc3cc(C)on3)n2-c2ccccc2OC)cc1	0.726	i	0.7	42.6	0.1	-0.4	2.5
COC(=O)[C@H](Cc1c[nH]c2ccccc12)NC(=O)NCc1ccc(OC)c(OC)c1	0.591	i	1.5	15.0	2.0	-4.2	0.5
O=C(CNC(=O)c1ccc(Cl)cc1)Nc1ccccc1C(F)(F)F	0.678	i	-0.2	-2.8	-2.7	4.1	-13.3
O=C(NNC(=S)Nc1ccccc1)c1ccc(O)cc1	0.643	i	3.6	99.0*	-1.3	3.7	-4.5
CN(C)c1nc2sc3c(c2c(=O)n1C)CC(C)(C)OC3	0.698	.	3.5	7.5	1.4	1.8	1.7
Cc1[nH]c2ccccc2c1C(=O)CN1CCCCC1C (stereo unspecified)	0.776	.	1.0	-26.1	3.7	0.2	4.0
COc1ccccc1CNC(=O)Cc1csc(NC(=O)Nc2ccccc2OC)n1	0.668	i	4.7	.	-4.0	-1.2	10.6
O=C(COC(=O)c1cccnc1Cl)Nc1ccc2c(c1)OCO2	0.724	i	1.8	-11.7	2.1	-0.5	0.6
O=C(NCC1CCCO1)c1cccc2ccccc12 (stereo unspecified)	0.654	i	2.4	-2.1	1.5	3.0	5.4
O=C(COC(=O)C1CCN(S(=O)(=O)c2cccc3cccnc23)CC1)c1ccccc1	0.731	i	1.2	-0.5	1.6	2.6	-2.6
O=C(c1ccc(S(=O)(=O)N2CCOCC2)cc1)N(c1ccccn1)C1CCCCC1	0.835	i	0.3	.	2.0	-3.8	2.8
CC(=NNc1ccccc1)C(C)=NNc1ccccc1	0.68	i	-5.0	.	3.8	.	0.3
Nc1nc(SCC(=O)N2CCN(c3ccccc3)CC2)n[nH]1	0.706	i	5.6	63.3	0.6	-3.4	-8.2
Cc1ccc(C)c(NC(=O)CSc2nnc(NC(=O)C3CC3)s2)c1	0.668	i	1.2	-2.0	4.1	-6.5	-9.7
COc1ccc(C(c2c(C)[nH]n(C(N)=S)c2=O)C(C#N)C#N)cc1 (stereo unspecified)	0.642	.	5.2	74.7	0.1	3.4	7.6
CCN1CCN(C(=O)CCS(=O)(=O)c2cc3c(cc2Cl)NC(=O)CO3)CC1	0.661	i	0.6	17.3	2.7	4.7	6.0
CN1CCN(C2Cc3ccccc3Sc3cc(C(F)(F)F)ccc32)CC1 (stereo unspecified)	0.538	i	9.6	-11.8	.	1.9	16.3
O=C(Cn1cc([N+](=O)[O-])cn1)Nc1nccs1	0.664	i	-1.0	-4.1	3.8	-1.7	3.3
O=C(Nc1ccc2c(c1)OCO2)c1cnn2c(C(F)(F)F)cc(-c3ccco3)nc12	0.74	.	4.9	-9.4	-1.5	-0.6	4.7
Cc1ccc(NC2=NC(c3ccc(C)cc3)n3c(nc(C)cc3=O)N2)cc1 (stereo unspecified)	0.668	.	5.4	-14.3	3.7	-0.5	0.9
CN(Cc1nc(-c2ccc(C(F)(F)F)cc2)no1)C1CCOCC1	0.684	.	-0.5	2.8	12.6	-3.3	-0.7
COc1cccc(C2c3[nH]c4ccccc4c3CCN2C(=O)Cn2cncn2)c1OC (stereo unspecified)	0.688	i	0.1	11.9	2.3	4.2	4.0

Screening results as filed in PubChem BioAssay.

A portion of the library. The share of hits here may be higher or lower than overall.
